NPYLR7 agonist: agonists of mosquito NPYLR7 receptor, primary screen, cell-based, Aedes aegypti, calcium fluorescence, mosquito biting behavior. Aedes aegypti neuropeptide Y-like receptor 7 (NPYLR7). HEK293T NPYLR7/Galpha15, GCaMP6s calcium fluorescence. activation, % at 10 µM. hit rate 0.15% among 270,000; in the data active means activation above about 40%;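 further: 0% = vehicle and 100% = reference agonist at the receptor; some compounds past the cut are filed as inactive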
NPYLR7 agonist max-min: recorded beside NPYLR7 agonist, whose call it bears; activation, %; measured here: Max-Min RFU normalised activation; some inactives read as strong as hits;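 span of the calcium signal over five minutes; 0% = vehicle and 100% = native peptide agonist; compound fluorescence can raise it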
* = called active by the depositor; & = joins results of further samples. Some of the compounds tested. The share of hits here may be higher or lower than overall.

#	canonical_smiles	NPYLR7 agonist max-min	NPYLR7 agonist
1	O=[N+]([O-])C(=C1Nc2ccccc2N1)C(Cl)=C(Cl)Cl	-18	-15
2	CCCCCn1c(=N)c(C#N)cc2c(=O)n3cccc(C)c3nc21	8	1
3	O=C(Cc1csc(NC(=O)c2ccc(=O)[nH]c2)n1)NCCC1=CCCCC1	2	-1
4	COCCN(Cc1ccc(OS(=O)(=O)c2cccc(C(F)(F)F)c2)cc1)C(=O)Nc1ccccc1Br	19	15
5	CN1CCCC(c2nn3c(Cc4ccccc4)nnc3s2)C1 (stereo not drawn)	-10	-4
6	COc1cn(CC(=O)NC(C)C)c(CN2CCCCCC2)cc1=O	0	1
7	COCCN(Cc1ccc(OC)c(OC)c1)Cc1ccc(C(O)(c2cccc(F)c2)c2cccc(F)c2)o1	-4	-3
8	O=C(CSc1ccc(C(F)(F)F)cn1)NCCCn1ccnc1	-5	-4
9	Oc1cc(CN2CCOCC2)c(O)cc1CN1CCOCC1	3	7
10	C=CCN1CC(C(=O)NCC2CC2)CCC1c1ccc(OC)c(OC)c1 (stereo not drawn)	1	5
11	COc1ccccc1OCCN1CCC(C(=O)NC(c2ccc(F)cc2)c2cnccn2)CC1 (stereo not drawn)	-2	8
12	O=C(NC1CC(=O)N(Cc2ccccc2C(F)(F)F)C1)c1ccc[n+]([O-])c1 (stereo not drawn)	9	14
13	CSc1ccccc1C(=O)N1CCC(C2(CCC(C)C)NC(=O)N(Cc3ccccn3)C2=O)CC1 (stereo not drawn)	5	20
14	Cc1ccc(C(=O)N2CCC(NCC(=O)Nc3cc(C)ccc3F)CC2)cc1	3	9
15	CC1CCCC(NC(=O)C2CCN(c3cc(N4CCOCC4)nc(N)n3)CC2)C1 (stereo not drawn)	-3	-2
16	COc1ccc(S(=O)(=O)Oc2cccc(CN(Cc3ccc(F)cc3)C(=O)NC(C)(C)C)c2)cc1	0	0
17	CCCCc1ccc(-c2ccc(-n3cncc3C(=O)NCc3cc(C(F)(F)F)ccc3Cl)cc2)cc1	-5	13
18	COc1ccc(-c2nc(CN3CCCC(C(N)=O)C3)c(C)o2)c(OC)c1C (stereo not drawn)	3	4
19	Cc1cc(C)cc(NC(=O)NCc2cccc(C(F)(F)F)c2)c1	20	-8
20	Nc1cc(-c2ccc(Cl)c(Cl)c2)nn1-c1ccc(C(=O)N2CCC[C@H]2C(=O)OCc2ccccc2)cc1	-14	-10
21	N#CCCN(CCO)Cc1ccccn1	-2	1
22	COc1ccc(CCNC(=O)c2ccccc2N2CCC(NC(=O)C3CC3)CC2)cc1	10	16
23	Cc1cccc2sc(=NC(=O)C(C)(C)C)n(C)c12	7	6
24	CC(C)NC(=O)[C@@]1(OCc2cccc(Cl)c2)CC(OCc2cccc(C(F)(F)F)c2)[C@@H]2OC(C)(C)O[C@@H]2C1 (stereo partly drawn)	-4	-2
25	O=C(CCc1nnc(Cc2ccc(-c3ccccc3)cc2)o1)N1CCCC(O)C1 (stereo not drawn)	-4	-2
26	O=C1N(Cc2cccnc2)C[C@@H]2C[C@@H](c3ccc(OCc4ccccc4)cc3)N3CCC[C@@]123	1	4
27	C=CCN(C)Cc1cccc(C(=O)Nc2cccc(F)c2)c1	2	4
28	COc1ccc(C(=O)N=c2sc(C)cn2C(C)C(=O)NCCN(C)C)cc1OC (stereo not drawn)	6	7
29	COc1cc2cc(CN3CCCC3c3nonc3C)c(=O)[nH]c2cc1OC (stereo not drawn)	-7	-4
30	CNc1ncc(C(=O)N2CCC3(CCOCC3)CC2)cn1	3	4
31	COC(C)C(=O)Nc1cc(-c2ccccc2C)nn1C (stereo not drawn)	4	10
32	Fc1ccc(C=Nn2cnn(Cc3ccccc3Cl)c2=S)cc1	8	9
33	CC(CC(=O)N(C)c1cccnc1)c1ccccc1 (stereo not drawn)	-7	-5
34	O=C(Nc1nc2c(cc3c4c(cccc42)CC3)s1)c1ccccc1[N+](=O)[O-]	-4	-4
35	O=C1CCCC2(C1)CC(=O)c1sc3ccccc3c1O2 (stereo not drawn)	8	8
36	COc1ccc(OC)c(C2SCC(=O)N(CC(=O)NCc3ccccn3)c3c2c(-c2ccccc2)nn3-c2ccc(F)cc2)c1 (stereo not drawn)	18	13
37	O=[N+]([O-])c1cccc(C2c3cccn3CCCN2Cc2ccccc2O)c1 (stereo not drawn)	0	-3
38	Cc1cc(C(=O)N2CCCC(N3CCN(Cc4ccc5c(c4)OCO5)CC3)C2)nc(C)n1 (stereo not drawn)	-1&7	2&17
39	CCSCCOC(=O)C1=C(C)N(C)C(=O)NC1c1ccc(Cl)cc1 (stereo not drawn)	6	5
40	CCN1CCN(C(=O)CCN(CC(C)C)c2nc(-c3ccco3)nc3cc(Cl)ccc23)CC1	5	9
41	CN(Cc1ccc2nonc2c1)C(=O)c1cn(CCc2ccccc2)nn1	-2	1
42	CC(Nc1ccc(C#N)cn1)c1ccccc1Br (stereo not drawn)	2&1&-31	4&5&-31
43	CC(Sc1nnc(-c2cccs2)n1CC(N)=O)C(=O)Nc1cccc(F)c1 (stereo not drawn)	11	7
44	CCOC(=O)C1CCCN(C(=O)c2ccc(CSc3nc(-c4ccccc4)cc(N4CCN(c5cccc(C(F)(F)F)c5)CC4)n3)cc2)C1 (stereo not drawn)	-2	12
45	CC(=O)Nc1ccc(Cl)c(C(=O)NC(C)c2ncn[nH]2)c1 (stereo not drawn)	-5	4
46	CC(C)c1cnc(COc2ccc(Br)nc2)o1	18	1
47	CCOC(=NC1CCCc2ccccc21)NC(=O)c1cccs1 (stereo not drawn)	19	1
48	CCCNC(=O)COC(=O)c1ccc2ccccc2c1O	0	2
49	CC(=O)N(CCc1ccc(S(N)(=O)=O)cc1)C1CC(=O)N(c2ccccc2)C1=O (stereo not drawn)	1	1
50	COC(=O)c1[nH]c(CN2C(=O)c3ccccc3S2(=O)=O)c(C(=O)OC)c1C	-9	-7
51	CCc1cc[n+](C2=C(c3c(C)[nH]n(-c4ccc(Cl)cc4)c3=O)C(=O)N(c3ccc(C)cc3)C2=O)cc1	4	-5
52	CC(c1nnnn1-c1ccccc1)S(=O)(=O)Cc1cc(-c2ccccc2)on1 (stereo not drawn)	6	8
53	Cc1cccc(-n2nc(C(=O)NCC3CCCO3)c(=O)n(Cc3cccc(Cl)c3)c2=O)c1 (stereo not drawn)	21	21
54	CCOc1cncc(N2CC3CCC2C3)n1 (stereo not drawn)	4	16
55	COc1ccc(-n2c(C)cc(C=C(C#N)C(=O)N3CC(C)OC(C)C3)c2C)cc1 (stereo not drawn)	6	5
56	NC(=O)c1c(NC(=O)CN(C2CC2)C2CCc3ccccc32)sc2c1CCCC2 (stereo not drawn)	0	3
57	CN(C)C(=O)N1CCC[C@@H]1C(=O)NC1CCC(NC(=O)c2ccccc2)CC1 (stereo partly drawn)	6	-2
58	COc1cccc(-n2nc(C(=O)N3CCOCC3)c(=O)n(Cc3ccc(F)cc3)c2=O)c1	20	15
59	CCOc1ccc(-c2c(C#N)c(N)n3c(nc4ccccc43)c2C#N)cc1OC	-9	-1
60	Cc1cc(C(C)NC(=O)c2ccc(C(F)(F)F)nc2C)c(C)o1 (stereo not drawn)	4	7

New compounds follow.
#	canonical_smiles	NPYLR7 agonist max-min	NPYLR7 agonist
61	CCOc1ccc(CC(=O)NCCc2cc3ccc(C)cc3[nH]c2=O)cc1	12	0
62	O=C(NCCNc1nc(-c2ccco2)nc2ccccc12)c1cccc([N+](=O)[O-])c1	1	-5
63	C=CCNc1nc(Cl)nc(Nc2ccc(I)cc2C)n1	3	4
64	COc1ccc(C=C2SC(=O)N(CCNC(=O)CSC)C2=O)cc1	4	4
65	COc1ccc(Cl)cc1NC(=O)Nc1cc(C)nc2ccccc12	-19	2
66	CCNC(=O)N(CCOC)Cc1nc(C)c(Cc2cccc(OC)c2)c(=O)[nH]1	10	23
67	CC(=O)Oc1c(-c2ccc(NC(=O)c3ccc4c(c3)OCO4)cc2)c(-c2ccco2)nn1-c1cccc(F)c1	10	6
68	CC/C=C(\C)CN1CCNC(=O)C1CC(=O)NC (stereo not drawn)	-2	8
69	O=S(=O)(NCc1ccccn1)c1ccc2ccccc2c1	6	1
70	Cc1cccc(/C=C/C(=O)Nc2ccc(CNS(C)(=O)=O)cc2)c1	-4	-2
71	CC(=O)N1CCN(C(=O)c2coc(CN(Cc3ccc(F)cc3)Cc3ccc(C(F)(F)F)cc3)n2)CC1	32	17
72	c1ccc(OCCn2ccnc2-c2cnc[nH]2)cc1	7	13
73	O=c1c2ccccc2nc(SCc2cc(=O)n3cc(Br)ccc3n2)n1C1CC1	4	7
74	COCCSc1nc2c(c(=O)[nH]c(=O)n2C)n1CCCc1ccccc1	9	18
75	C=C1c2ccccc2C/C(=N\O)c2ccccc21	1	1
76	Cc1cc(NC(=O)c2ccco2)n(-c2nc(-c3cccs3)cs2)n1	-17	-12
77	COCC(=O)n1nc(-c2cccnc2)nc1NCc1ccccc1	-2	-4
78	Cc1nc(CCN)cc(NCc2ccc(-n3cncn3)cc2)n1	-5	6
79	CC1C(=O)N(c2ccc(Oc3ccccc3)cc2)CCN1Cc1ccccc1F (stereo not drawn)	21	11
80	Cc1ccc(C2(C(F)(F)F)NC(=O)N3C=CC=CC3=C2C#N)cc1 (stereo not drawn)	7&0	11&-1

7 entries drawn at random from the list so far, as already listed:
#	canonical_smiles	NPYLR7 agonist max-min	NPYLR7 agonist
63	C=CCNc1nc(Cl)nc(Nc2ccc(I)cc2C)n1	3	4
75	C=C1c2ccccc2C/C(=N\O)c2ccccc21	1	1
62	O=C(NCCNc1nc(-c2ccco2)nc2ccccc12)c1cccc([N+](=O)[O-])c1	1	-5
64	COc1ccc(C=C2SC(=O)N(CCNC(=O)CSC)C2=O)cc1	4	4
74	COCCSc1nc2c(c(=O)[nH]c(=O)n2C)n1CCCc1ccccc1	9	18
61	CCOc1ccc(CC(=O)NCCc2cc3ccc(C)cc3[nH]c2=O)cc1	12	0
67	CC(=O)Oc1c(-c2ccc(NC(=O)c3ccc4c(c3)OCO4)cc2)c(-c2ccco2)nn1-c1cccc(F)c1	10	6

Other records.
#	canonical_smiles	NPYLR7 agonist max-min	NPYLR7 agonist
81	Cc1ccc(-n2nnnc2CNC(=O)c2ccc(S(=O)(=O)N3CCOCC3)cc2)cc1C	6	8
82	Cc1cccnc1C1=NOC(Cc2ccccc2)C(=O)N1 (stereo not drawn)	0	8
83	CC(C)(C)c1ccc(C(=O)Nc2ccc(O)c(-c3nc4ccccc4o3)c2)cc1	15	12
84	COc1cc(/C=C2\N=C(c3ccc(C)c(C)c3)OC2=O)ccc1OC(C)=O	-8	-3
85	CN(Cc1ccc(F)cc1F)C(=O)NNC(=O)c1cnccn1	4	8
86	Cc1ccc2nc(CNC(=O)CC3NC(=O)c4ccccc43)[nH]c2c1 (stereo not drawn)	-3	1
87	CN(CCc1cn[nH]c1)C(=O)CCNC(=O)c1ccccc1F	3	8
88	Cc1[nH]n(-c2nc(-c3cccc([N+](=O)[O-])c3)cs2)c(=O)c1N=Nc1cccc(CO)c1	-7	-5
89	COC(=O)c1ccc(NC(=O)c2cn(Cc3ccccc3)nc2OCc2ccccc2)cc1	0	11
90	C=CCn1c(=NC(=O)c2c(OC)cccc2OC)sc2cccc(OC)c21	-2	1
91	CCCSc1ncccc1C(=O)NCC1CCCO1 (stereo not drawn)	-2	-1
92	O=C(c1cncn1-c1ccc(F)cc1)N1CCN(S(=O)(=O)c2ccccc2Cl)CC1	-5	-4
93	Cc1nc2ncnn2c(N2CCN(S(=O)(=O)c3ccccc3C(F)(F)F)CC2)c1Cc1ccccc1	11	26
94	CC1(Cc2ccc(F)c(Cl)c2)C(=O)Nc2ccc(OC(F)(F)F)cc21 (stereo not drawn)	4	1
95	Cc1ccsc1CN(Cc1ccc(F)cc1)C(=O)CN(C(=O)c1ccc(Cl)c(Cl)c1)C1CC1	7	-2
96	CCn1nc(C)c(NC(=O)CN2CCCC(c3nc(C(C)C)no3)C2)c1C (stereo not drawn)	-2	8
97	Cc1ccc(C2=N/C(=C/c3ccc(C(C)C)cc3)C(=O)O2)cc1C	-6	-3
98	O=C(/C=C/c1ccccc1OC(F)F)Nc1cc2c(cc1Cl)NC(=O)CO2	7	6
99	CCCCN(C)S(=O)(=O)NCC1(N(C)C)CCCC1	1	2
100	COc1c(C)cc(C(=O)C2CCCN(Cc3nc4ccc(F)cc4[nH]3)C2)cc1C (stereo not drawn)	-4	-3
101	O=C(CSc1nc(=O)n2ccccc2n1)OCc1ccccc1	13	14
102	Cc1nc(N(CC2CCCO2)CC2CCCO2)c2c3c(sc2n1)CCC3 (stereo not drawn)	7	10
103	Cc1ccsc1CN(C)Cc1cn[nH]c1-c1ccc(F)cc1	4	6
104	Cc1[nH]nc(Nc2ccccc2)c1N=Nc1ccc(Br)cc1	-2	-1
105	O=C(CCC(=O)c1ccc(F)cc1)NCCCOc1cccc([N+](=O)[O-])c1	-9	-6
106	CC(C)N=C1NN=C(c2ccc(Cl)c(Cl)c2)CS1	1	5
107	O=C(CSc1nnc(C2CC2)n1C1CC1)NC(=O)NC1CCCCC1	8	-1
108	COC(=O)c1ccc(CSc2ncn[nH]2)o1	-1	2
109	COc1ccc(-n2nc(-c3ccccc3)c3c2N(CC(=O)NCC2CCCO2)C(=O)CSC3c2ccc3c(c2)OCO3)cc1 (stereo not drawn)	18	16
110	O=C(NS(=O)(=O)N1CCc2sccc2C1)c1cccs1	1	4
111	COc1ccccc1Oc1cc(C)nc(SCc2cc(F)cc(F)c2)n1	24	20

Given in transposed form: entries from further up
[107] O=C(CSc1nnc(C2CC2)n1C1CC1)NC(=O)NC1CCCCC1
[108] COC(=O)c1ccc(CSc2ncn[nH]2)o1
[109] COc1ccc(-n2nc(-c3ccccc3)c3c2N(CC(=O)NCC2CCCO2)C(=O)CSC3c2ccc3c(c2)OCO3)cc1 (stereo not drawn)
compound no.	107	108	109
NPYLR7 agonist max-min	8	-1	18
NPYLR7 agonist	-1	2	16

Screening results (PubChem)
